# Calb FLC: C. albicans growth modulation with fluconazole; C. albicans CaCi-2 (fluconazole-resistant clinical isolate) + fluconazole, Alamar Blue growth, 48 h; growth inhibition, % (test concentration not listed); 300,000 compounds, 0.57% hits; AID 1979;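 active means most replicates above 75%; inconclusive means exactly half above 75%; inactive means most below 75%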;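 further: all wells also contain fluconazole at 8 µg/ml as a sub-toxic cotreatment; 0% = median of DMSO wells and 100% = median of geldanamycin control wells; wells of about 8 µL received 7.5 nL stock; the first replicate is given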
# rRNA inh HTS: inhibitors of bacterial rRNA selective over humanized ribosomes; AID 720706; 350,000 compounds, 1.6% hits; E. coli WT GFP vs humanized-ribosome RFP mutants, fluorescence, 24 h; stronger effect = lower value; DMSO median 0, no signal -100; GFP signal change (wild-type ribosome), % (concentration not given with the values);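 active means significant combined selectivity score with lowered wild-type GFP, culture density cut under 30%, mutant RFP and density less affected; inactive means any of these conditions unmet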; further: one replicate is shown; some compounds called inactive have numbers as strong as hits
# FGF22 binding: shifts melting point of recombinant human FGF22 | recombinant FGF22 thermal shift, SYPRO orange fluorescence; percent of sucrose octasulfate shift, DMSO zero | calls only at 9.99 µM | Q9HCT0 | 340,000 compounds, 1.5% hits;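 active means melting point raised past a set limit in the mean and every replicate; inconclusive means no clear call; three in four hits are not shown here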
# Target sequence (Q9HCT0 whole entry, looked up): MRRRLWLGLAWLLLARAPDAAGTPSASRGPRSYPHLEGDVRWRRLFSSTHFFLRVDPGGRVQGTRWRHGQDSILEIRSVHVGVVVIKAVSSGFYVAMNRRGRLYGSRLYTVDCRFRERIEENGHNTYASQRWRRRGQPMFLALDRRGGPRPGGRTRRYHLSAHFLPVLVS
# ALR inh: blocks human ALR sulfhydryl oxidase activity. P55789. purified ALR, DTT oxidation, H2O2 HRP-luminol luminescence. inhibition, % (test concentration not listed). 290,000 compounds, 3.8% hits;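 active means mean and each replicate at 75% or more; inconclusive means only one of the two met; inactive means neither met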;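 further: stock transfer was 7.5 nL into about 7.5 µL; 0% = neutral wells and 100% = wells with inactivated enzyme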
# Target sequence (P55789 whole entry, looked up): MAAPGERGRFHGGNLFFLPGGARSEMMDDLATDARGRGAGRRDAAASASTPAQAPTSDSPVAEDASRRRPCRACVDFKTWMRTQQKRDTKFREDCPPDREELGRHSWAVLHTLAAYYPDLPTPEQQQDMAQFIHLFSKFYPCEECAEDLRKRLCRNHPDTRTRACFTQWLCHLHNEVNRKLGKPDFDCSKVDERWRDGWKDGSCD
# MLL AF4-AF9 inh: inhibitors of human MLL-AF4/AF9 interaction; AlphaScreen, biotin-AF4 peptide binding to FLAG-AF9; inhibition, % at 10 µM; 350,000 compounds, 0.47% hits;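 active means every replicate reaching a set inhibition limit, whatever the replicate mean, cut at about 25% in these data; inconclusive means mean inhibition reaches that limit but some replicates miss it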;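 further: 0% = plate neutral control median and 100% = total signal loss; the record names both 10 and 1 µM as test concentration; the first replicate is given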
# Target sequence (P42568 whole entry, looked up): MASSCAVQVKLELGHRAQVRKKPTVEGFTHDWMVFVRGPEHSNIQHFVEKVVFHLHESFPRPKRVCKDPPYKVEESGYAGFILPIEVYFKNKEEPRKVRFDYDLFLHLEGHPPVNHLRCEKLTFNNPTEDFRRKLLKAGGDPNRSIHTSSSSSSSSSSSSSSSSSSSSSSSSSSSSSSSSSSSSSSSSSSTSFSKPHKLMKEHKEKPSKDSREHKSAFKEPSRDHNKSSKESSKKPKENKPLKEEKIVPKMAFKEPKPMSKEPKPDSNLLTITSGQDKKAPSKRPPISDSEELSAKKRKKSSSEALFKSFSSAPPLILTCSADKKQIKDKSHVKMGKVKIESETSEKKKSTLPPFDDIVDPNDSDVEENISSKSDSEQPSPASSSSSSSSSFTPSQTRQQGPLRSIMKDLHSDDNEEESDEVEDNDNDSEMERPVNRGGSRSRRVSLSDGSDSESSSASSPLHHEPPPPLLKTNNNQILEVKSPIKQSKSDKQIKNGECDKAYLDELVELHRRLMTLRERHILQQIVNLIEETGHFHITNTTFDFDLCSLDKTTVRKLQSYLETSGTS
# T cruzi repl: blocks replication of Trypanosoma cruzi. inhibition, % (concentration not given with the values). T. cruzi beta-gal in NIH3T3, luminescence, 90 h. 300,000 compounds, 1.4% hits;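 active means mean inhibition across valid replicates above about 55%, limit read from the data; inconclusive means mean below that limit but half or more replicates reach it; inactive means mean below it, under half of replicates reach it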;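 further: signal also drops with host cell toxicity which is not excluded here; 0% = plate median of DMSO wells and 100% = zero luminescence signal; higher percent means less beta-gal luminescence so fewer parasites; stock transfer was 50 nL into about 50 µL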
# RanGTP-Impb inh: inhibitors of RanGTP-importin-beta interaction, primary screen, biochemical, FRET, CFP-Ran, YFP-importin-beta, homogeneous. cell-free CFP-Ran/YFP-importin-beta FRET ratio. inhibition, % (concentration not given with the values). 300,000 compounds, 1.1% hits;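 active means most replicates above 15%; inconclusive means exactly half above 15%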;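 further: 0% = DMSO wells and 100% = Ran loaded with GDP instead of GTP; wells of about 40 µL received 100 nL stock; the first replicate is given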
# Beta apoptosis: beta cell apoptosis inhibition | INS-1E cytokine-induced death, ATP luminescence, 48 h; percent of positive-control rescue, neutral wells zero | protection from apoptosis, % (test concentration not listed) | 300,000 compounds, 0.8% hits;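 active means all replicates at 75% or more, or half of them and the mean; inconclusive means half reach 75% but not the mean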;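 further: 0% = cytokine-treated negative control wells and 100% = positive control rescue; higher means more ATP so stronger rescue from cytokine killing; wells of about 40 µL received 100 nL stock; the first replicate is given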
# rRNA inh HTS OD600: second read-out of rRNA inh HTS, no call of its own (marks repeat the call); OD600 change, %; measured here: OD600 growth;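 optical density of the mix in the first replicate; 0 = DMSO median and -100 = no signal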
# rRNA inh HTS RFP: also measured in rRNA inh HTS; calls as there; RFP signal change, %; measured here: RFP humanized mutant strains;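 first replicate; 0 = DMSO median and -100 = no signal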
# Starred values were filed as active, the others as inactive; i = inactive; ? = inconclusive; · = no result given.
SMILES,Calb FLC,rRNA inh HTS,rRNA inh HTS OD600,rRNA inh HTS RFP,FGF22 binding,ALR inh,MLL AF4-AF9 inh,T cruzi repl,RanGTP-Impb inh,Beta apoptosis
Cc1nc2ccccn2c1P(=Nc1ccccc1)(N(C)C)N(C)C,-11.5,3.1,3.8,3.5,i,-2.6,-8.0,0.5,9.5,-1.6
Cc1cc(O)c(C(=O)/C=C/c2c(F)c(F)c(F)c(F)c2F)c(=O)o1,-1.4,8.2,13.2,3.5,i,5.4,-1.4,-5.8,-8.5,2.9
COc1ccc(N(C(=O)CNC(=O)c2ccco2)C(C(=O)NC2CCCCC2)c2cccnc2)cc1 (stereo not drawn),2.6,·,·,·,i,-3.7,-1.4,-13.0,3.5,-2.6
Cc1cc(C)cc(OCC(=O)OCC(=O)c2ccc3c(c2)NC(=O)CO3)c1,1.4,·,·,·,·,-11.9,·,-14.3,0.7,-5.6
CCN(CC)C(=O)COc1ccc(Br)cc1Cl,6.2,·,·,·,·,·,·,-2.5,5.9,2.2
COc1ccc(CN2C(=O)C(Cc3ccccc3)Nc3ncnc(N4CCOCC4)c32)cc1 (stereo not drawn),-10.6,20.0,13.4,6.5,i,1.2,0.9,3.9,1.0,5.8
COc1ccc(OCC(=O)Nc2ccccc2C(=O)N2CCOCC2)cc1,-19.3,12.9,7.0,4.1,i,-5.1,1.7,4.5,0.9,-5.7
CC1CC(C)CN(C(=O)COC(=O)Cc2c[nH]c3ccccc23)C1 (stereo not drawn),-2.3,-6.6,-11.3,0.9,i,·,-9.1,2.0,2.7,-6.3
Cc1ccn2cc(-c3ccc(Br)cc3)nc2c1,-2.3,16.4,17.4,-1.2,i,·,-22.0,3.9,-11.3,7.1
C/C(=N/NC(=O)c1ccncc1)c1ccc(NC(=O)c2ccc(Cl)cc2Cl)cc1,2.0,-15.9,-12.1,-2.1,i,-4.9,-0.7,12.5,-2.1,-2.0
CC(=O)Nc1ccc(OCC(O)CN2CCN(c3ccc(F)cc3)CC2)cc1 (stereo not drawn),-14.0,5.3,6.4,2.2,i,98.0*,6.7,-4.1,1.3,-2.0
O=C(Nc1nccs1)C(c1ccccc1)N1CCCC1 (stereo not drawn),-10.4,9.3,4.4,-0.4,i,-7.5,-1.4,9.1,-1.4,-9.6
CN(C(=O)c1ccncc1)c1nnc(-c2cccnc2)s1,3.1,·,·,·,·,-3.2,·,3.6,1.2,-4.7
Nc1nonc1-n1nnc(C(=O)O)c1-c1cccs1,-20.1,·,·,·,·,-7.8,·,3.9,-2.5,-2.1
CC(C)CCN(CCC(C)C)C/C(O)=C(\C#N)c1nc(-c2ccccc2)cs1,6.6,·,·,·,·,-0.8,·,-3.7,3.2,·
O=C(COC(=O)/C=C/c1cccc(C(F)(F)F)c1)NCc1ccc(F)cc1,-19.6,·,·,·,·,-3.3,·,-15.5,?,4.4
COc1cc(CCC(=O)OCC(=O)Nc2ccc(F)c(F)c2)cc(OC)c1OC,5.9,-34.0,-53.1,-3.9,i,-5.6,-1.7,-3.4,0.4,·
Oc1ccc(Cl)cc1CNCc1ccc(C(F)(F)F)cc1,·,-1.8,-9.8,-11.4,i,·,-1.8,·,·,-4.2
COCCNC(=S)N1CCN(c2nc3ccccc3s2)CC1,0.7,-26.3*,-18.1*,-1.0*,i,-5.1,-0.5,-3.2,1.8,-3.9
CC(C)(C)n1nc2c(c1NC(=O)c1cc(Cl)ccc1[N+](=O)[O-])CS(=O)(=O)C2,12.0,9.0,9.8,-0.1,i,-6.2,-1.5,-8.1,1.9,-9.2
O=C(NC1CCCCC1)c1cccc(OCc2ccccc2)c1,1.6,2.4,-9.6,0.1,i,1.1,-2.8,19.8,1.2,·
O=c1c2cn[nH]c2[nH]c(=S)n1-c1cccc(Cl)c1,-8.8,·,·,·,·,23.9,·,-14.8,5.0,6.0
COc1ccc(-c2cnc3c(c2)CCC3(C#N)C#N)cc1,15.5,-12.1,-10.4,-9.6,i,-4.2,-9.4,-9.9,5.5,1.1
Cc1cccc(NC(=O)c2ccc(Cl)c(S(=O)(=O)N3CCCC3)c2)n1,-9.6,-6.6,-21.2,-4.4,i,0.5,-1.2,5.8,-0.6,·
Cc1nnc(NC(=O)CCSc2ccccc2)s1,-1.6,·,·,·,·,-3.4,·,-1.9,0.8,-0.1
Cc1ccc(S(=O)(=O)NCC(c2cccnc2)N(C)C)cc1 (stereo not drawn),7.9,·,·,·,·,-12.4,·,-29.1,-0.6,0.9
CN(Cc1ccccc1)C(=O)c1cccc(NC(=O)Cc2cccc([N+](=O)[O-])c2)c1,·,-16.4,-16.9,-9.8,i,-3.2,-30.1,·,·,-7.7
Cc1cc(=O)[nH]c(N/N=C/c2c(C)oc3ccccc23)n1,1.2,-5.2,1.9,-3.3,i,-12.2,10.8,-3.5,2.9,-2.4
O=C(COC(=O)c1cc(S(=O)(=O)N2CCCCC2)ccc1N1CCOCC1)NCCc1ccc(F)cc1,4.3,-20.5*,-13.5*,1.7*,i,-4.9,1.6,21.0,-0.3,1.3
O=C(NCc1ccco1)C(=S)N1CCCC1,-7.1,16.9,-20.0,2.6,i,-5.7,-0.4,-3.2,-0.1,-0.5
CCOC(=O)c1ccc(NC(=S)N(CCCN2CCN(CC)CC2)Cc2ccco2)cc1,-23.0,-1.6,-16.9,0.7,i,·,6.3,-3.1,-4.7,-24.9
Cc1ccc(OCC(=O)Nc2ccc3c(c2)OCO3)c(C)c1,-40.8,0.7,26.5,-0.8,i,-3.8,-5.1,-5.7,3.2,7.9
Cc1cc2[nH]c(=O)c(=O)[nH]c2cc1S(=O)(=O)Nc1cccc(Cl)c1C,-3.8,0.2,-11.0,1.7,i,-2.5,-4.6,-12.9,-0.1,-2.9
Cc1ccc(CNC(=S)Nc2ccc(OC(F)F)cc2C)cc1,-18.6,1.8,0.3,-0.6,i,1.0,6.2,3.2,3.5,-9.2
O=C(NC1CCCCCCC1)C1CCC(CNc2c(N3CCCC3)c(=O)c2=O)CC1 (stereo not drawn),-0.4,3.1,4.8,0.2,i,69.2,1.1,-14.5,-2.5,4.7
N#C/C(=C/c1cn(-c2ccccc2)nc1-c1cccc(OCc2ccc(F)cc2)c1)C(=O)NCCCn1ccnc1,2.4,·,·,·,·,2.8,·,63.5*,5.9,-1.2
O=C1N[C@H](Cc2ccccc2)COC(=O)[C@@H](Cc2ccc(F)cc2)C/C=C\C[C@H]1CC(=O)N(CCO)Cc1ccccc1,·,1.5,-14.8,-1.3,i,-2.7,0.1,·,·,-2.1
COc1ccc(C2=[N+]([O-])C(C)(C)C(c3ccccc3)=N2)cc1,-19.8,-8.9,-9.6,-1.3,i,-6.8,10.6,-8.6,-5.6,-2.6
O=c1c(-c2ccc(Br)cc2)coc2c(CN3CCCCC3)c(O)ccc12,-5.6,4.9,5.1,1.1,i,·,0.6,16.5,1.1,·
Cn1cc(Br)c(NC(=O)/C=C/C(=O)O)n1,-0.4,6.0,8.8,1.6,·,-2.7,-1.9,-0.1,1.2,-3.0
CCN(CCn1cccn1)Cc1cn[nH]c1-c1ccc(-c2ccccc2)cc1,10.7,-29.4,-45.5,16.1,i,-5.1,1.5,20.8,3.5,1.9
COc1cc(OC)cc(C(=O)NNC(=O)c2cc(S(=O)(=O)N3CCOCC3)ccc2F)c1,·,-4.1,-9.4,-0.9,i,3.4,4.3,·,·,-0.3
Cc1nn(-c2ccccc2)c(C)c1C(=O)OCC(=O)Nc1cccc(S(N)(=O)=O)c1,·,-10.9,-18.1,-0.1,i,-2.5,2.5,·,·,-1.1
COc1ccc2c(Cl)c(C(=O)NCc3ccco3)sc2c1,24.9,·,·,·,·,-0.2,·,-12.9,-1.7,5.6
CCCCc1c(O)n2c(nc3ccccc32)[nH]c1=O,-0.2,·,·,·,·,6.1,·,-10.3,-2.6,1.6
Cc1ccc(C(=O)Nc2nc(-c3cccnc3)cs2)o1,-13.0,·,·,·,·,-9.6,·,13.9,1.1,0.8
O=C(N/N=C\c1ccc2c(c1)OCO2)c1cncc(Br)c1,27.9,0.6,3.3,-2.6,i,1.4,-2.8,8.2,1.6,0.2
COc1ccc(-n2c(SCC(=O)Nc3ccc(NC(C)=O)cc3)nc3c([nH]c4ccccc43)c2=O)cc1OC,5.8,-5.5,-21.2,-4.8,i,-4.0,3.0,-2.6,-0.4,4.1
O=S(=O)(NCCN1CCCC1)c1ccc(Br)cc1,4.3,6.9,5.7,2.8,i,-13.8,-3.8,2.8,5.2,-4.6
CCCc1cc(=O)[nH]c(SCC(=O)c2ccc3c(c2)OCCO3)n1,-4.8,·,·,·,·,-2.3,·,12.6,1.3,-11.3
O=C(Oc1ccccc1F)C1CCN(C(=O)c2ccc(F)cc2)CC1,3.1,-1.8,-5.5,-3.8,i,0.7,-28.1,-5.7,0.1,3.3
Cc1ccc(C(=O)c2cn(-c3ccc(F)c(Cl)c3)nn2)cc1,5.6,·,·,·,·,-7.3,·,-3.3,-2.4,-8.1
N#Cc1c(N)nc2c(c1N)CC(C(F)(F)F)O2 (stereo not drawn),0.9,3.7,7.7,0.6,i,-0.9,-1.2,3.4,3.0,-2.8
Nc1nc(N2CCN(C(c3ccccc3)c3ccccc3)CC2)n[nH]1,4.5,-10.8,-16.3,-1.9,i,15.5,3.5,16.8,-1.3,·
CC1COc2ccccc2N1S(=O)(=O)c1cc(Cl)ccc1Cl (stereo not drawn),9.7,-19.4,-38.1,-6.0,i,1.8,-18.5,4.3,-2.6,-3.0
CCC(CO)Nc1ccc(-c2n[nH]c(=O)c3ccccc23)cc1[N+](=O)[O-] (stereo not drawn),7.3,0.2,1.3,-4.2,i,-0.5,-3.3,-4.5,-1.5,1.7
CCCn1c(O)c(CN2CCCCC2)c(C)c(C#N)c1=O,-1.6,·,·,·,·,-14.5,·,-9.6,1.6,-2.9
Cc1onc(-c2ccccc2)c1C(=O)N1CCCN(C(=O)c2c(-c3ccccc3)noc2C)CC1,-2.5,·,·,·,·,-0.7,·,-0.7,2.1,·
CCn1cc(S(=O)(=O)CC(=O)Nc2cc(C)ccc2C)c2ccccc21,0.5,2.8,-12.6,0.9,i,-5.4,3.6,-5.6,0.6,-12.1
Cc1ccc(NCc2ccccc2F)cc1,-23.0,·,·,·,·,·,·,22.5,8.7,-2.9

# (further entries)
SMILES,Calb FLC,rRNA inh HTS,rRNA inh HTS OD600,rRNA inh HTS RFP,FGF22 binding,ALR inh,MLL AF4-AF9 inh,T cruzi repl,RanGTP-Impb inh,Beta apoptosis
COCc1nnc(NS(=O)(=O)c2ccc(Br)cc2)s1,3.6,·,·,·,·,10.4,·,5.5,-2.9,-2.5
FC(F)(F)c1cc(Oc2ccccc2Cl)nc(-c2ccccn2)n1,12.3,·,·,·,·,6.6,·,2.2,-0.3,24.1
COc1ccc(C)c2sc(N(CCN(C)C)C(=O)/C=C/c3cccs3)nc12,-21.2,-58.2,-78.5,-16.2,i,-5.0,9.7,4.0,3.7,6.8
CSc1ccc(S(=O)(=O)NCc2ccccc2)cc1,0.0,·,·,·,·,-11.7,·,-1.1,?,-8.6

# Some of the compounds tested; rates above refer to the full screens.
